Compound activity: PubChem BioAssay, National Center for Advancing Translational Sciences (NCATS)
PK Bst: Pyruvate Kinase; partly purified Bacillus stearothermophilus pyruvate kinase, luminescence ATP production; ribose 5-phosphate activator present at AC10; Potency, µM; 1.2% of 51,000 active; AID 361, 2006; in the data active means potency below about 11 µM; inconclusive means mostly about 12 µM to 25 µM; inactive means weaker than that;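 the screen sought inhibitors and activators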;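 also: potency is read from the fitted curve at half-maximal effect; scaled between full activation by ribose 5 phosphate and full inhibition by luteolin; about four in five hits inhibit and the cells do not say which; series up to 57 µM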
YjeE inh: qHTS Assay for Inhibitors of YjeE. Potency, µM. AID 605, 2007. 0.05% of 71,000 active. purified YjeE, fluorescence polarisation of a bound ADP probe. tRNA threonylcarbamoyladenosine biosynthesis protein TsaE (Escherichia coli (strain …; active = well fitted falling curve; inconclusive = weaker or top-dose-only fall, or a rising curve; inactive = flat or poorly fitted curve;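 also: top concentration of the series not given in the record; excess ADP was the control for the full effect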
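Purified YjeE (10 uM) with BODIPY Texas Red-labeled ADP probe (2 uM); compounds pin-transferred, 15 min at room temperature. Binding inhibition read as decreased fluorescence polarization; ADP titration as control.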
* hit, by the source's call; i = inactive; ? = inconclusive; / = no result given.

SMILES	PK Bst	YjeE inh
CC(=O)OC12CC3CC(C1)C(=NO)C(C3)C2	>26	/
c1ccc(CCNc2ncnc3c2nnn3Cc2ccccc2)cc1	>57	i
CN(CC(=O)O)S(=O)(=O)c1cccs1	>57	i
N#Cc1ccc(CN2CC3(CCN(C(=O)c4cnccn4)CC3)C2)cc1	/	i
C=CCn1c(-c2c[nH]c3ccccc23)n[nH]c1=S	>11	i
CCc1ccccc1OCCCCN1CCCC1	>57	i
O=C(CCCOc1ccccc1)N1CCc2ccccc2C1	>57	i
NCc1ccc(C(=O)O)cc1	/	i
OC1(c2cccc(C(F)(F)F)c2)CCN(c2ncnc3c2[nH]c2ccccc23)CC1	>26	/
CCOC(=O)N1CCN(C(=O)c2ccc(N3CCCC3=O)cc2)CC1	>57	i
Cc1ncc[nH]1	/	i
Nc1ccc([N+](=O)[O-])cc1O	/	i
Oc1c(CN2CCN(c3ccccc3)CC2)cc(Br)c2cccnc12	/	i
Cc1ccc(-c2cc(C(=O)Nc3c(C)n(C)n(-c4ccccc4)c3=O)[nH]n2)c(O)c1	>57	i
CC(C)N1C(=O)CCC1C(=O)N1CCN(c2ccccn2)CC1 (stereo not drawn)	/	i
CCOC(=O)C1=C(N)OC2=C(C(=O)CCC2)C1c1ccco1 (stereo not drawn)	>57	i
COC(=O)CN1C(=O)C2(OCCCO2)c2ccccc21	>57	i
CCS(=O)(=O)N1CCC(NC(=O)c2ccco2)CC1	>57	i
CCCSC1=C(C#N)C(c2ccccc2C)C(C(=O)OC)C(=O)N1 (stereo not drawn)	>57	i
N#CCc1ccc(NS(=O)(=O)c2ccc(N3CCCC3=O)cc2)cc1	/	i
O=C(O)c1cccc2[nH]c(C(F)(F)F)nc12	>57	i
Clc1ccc(C(c2nnnn2C2CCCC2)N2CCN(Cc3ccncc3)CC2)cc1 (stereo not drawn)	>57	i
Cc1nc(C)c(C(=O)Nc2nc3c(C)cccc3s2)o1	>57	i
NC(=O)c1cc(Br)cc2c3c([nH]c12)CCCC3	0.69*	i
O=C(Cc1ncn[nH]1)NCCc1ccccc1	/	i
COc1ccc2[nH]c(=O)c(CNC3CCCCC3)cc2c1	/	i
CCOC(=O)CCSCC(=O)Nc1nnc(C)s1	/	i
Cn1c(-c2ccccc2)cc(=O)c2ccccc21	/	i
Cc1ccc(S(=O)(=O)N2CCN(C(=O)CSC3CCCC3)CC2)c(C)c1	>57	i
Cc1onc(-c2ccccc2)c1C(=O)N[C@@H]1C(=O)N2[C@@H]1SC(C)(C)[C@@H]2C(=O)O	>11	/
Cc1ccc(-n2c(SCn3nnc4ccccc4c3=O)nnc2-c2cccnc2)c(C)c1	>57	i
CC1(C)Cc2c(C#N)c(NC3CCCCC3)nc(-c3ccco3)c2CO1	/	i
O=C1CSc2ccccc2N1Cc1ccccc1F	>57	i
CC(C)NC(=O)c1ccc2c(c1)nnn2C	>57	i
CN(C)S(=O)(=O)c1ccc(S(=O)(=O)N(Cc2ccccn2)Cc2ccco2)cc1	>57	i
CCOc1ccc2nc(N3CCC(C(=O)N4CCN(c5ncccn5)CC4)CC3)sc2c1	/	i
CC(Oc1ccc(Cl)cc1Cl)C(=O)Nc1ccncc1 (stereo not drawn)	/	i
CCOC(=O)c1ccc(Oc2nc(OC)nc(N(C)C)n2)cc1	/	i
Cc1cnc(C(=O)Nc2cccc3ncccc23)cn1	>57	i
CCCCC(=O)NCCc1c(Cc2ccccc2)[nH]c2ccccc12	/	i
COCCCN(C(=O)Nc1ccc(C)c(C)c1)C(C)c1ccccn1 (stereo not drawn)	/	i
COc1cccc(CNc2ccc(S(=O)(=O)Nc3nccs3)cc2)c1O	>57	i
C=CCn1c(SCC(=O)c2ccc(O)c(O)c2)nnc1-c1ccccc1OC	>57	i
COc1ccc(C)cc1S(=O)(=O)N(C)CC(=O)NCc1ccco1	>57	i
COc1ccc(Cn2nnnc2C(c2cc3cccc(C)c3[nH]c2=O)N2CCOCC2)cc1 (stereo not drawn)	>57	i
O=C(Nc1ccc(S(=O)(=O)NC2CCCC2)cc1)c1cnccn1	>57	i
O=C(Nc1cnn(Cc2ccccc2)c1)c1cc2nc(-c3ccco3)cc(C(F)(F)F)n2n1	>57	i
CC1(C)CNC(=O)CC(C)(C)N1O	/	i
CCOc1ccc(Cl)cc1S(=O)(=O)N1CCN(c2ccc(F)cc2)CC1	>57	i
COC(=O)[C@@H]1C[C@H]1[C@@H](NC(=O)c1ccc(Br)cc1)c1ccccc1	/	i
(listing goes on)
SMILES	PK Bst	YjeE inh
O=C(CSc1nnc(-c2cccs2)n1-c1ccccc1)NCc1ccc2c(c1)OCO2	>57	i
CC1CCCN(c2nc3c(c(=O)[nH]c(=O)n3C)n2CCCc2ccccc2)C1 (stereo not drawn)	/	i
Cc1ccc2c(c1)CCCN2C(=O)c1ccncc1	>57	i
Cc1noc(C)c1C(=O)Nc1ccccc1-c1ccccc1	>57	i
CCN(CC)S(=O)(=O)c1ccc2nc(CSc3nnnn3-c3ccc(O)cc3)[nH]c2c1	>57	i
c1csc(CNc2ncnc3sccc23)c1	>57	i
Cc1cccc(NS(=O)(=O)c2ccc(C)c(C(=O)OCC(=O)Nc3cc(C)on3)c2)c1	>57	i
Nc1nc2n(n1)C(c1ccccc1)CC(c1ccc(F)cc1)N2 (stereo not drawn)	/	i
COc1ccc(-c2nnc(SCC(=O)Nc3cc(C)on3)n2N)cc1OC	>57	i
CN(C)CCN1C(=O)C(=O)/C(=C(/O)c2ccc(F)cc2)C1c1ccccc1 (stereo not drawn)	>57	i

Structures from the list above that contain fluorine (seven):
SMILES	PK Bst	YjeE inh
OC1(c2cccc(C(F)(F)F)c2)CCN(c2ncnc3c2[nH]c2ccccc23)CC1	>26	/
O=C(O)c1cccc2[nH]c(C(F)(F)F)nc12	>57	i
O=C1CSc2ccccc2N1Cc1ccccc1F	>57	i
O=C(Nc1cnn(Cc2ccccc2)c1)c1cc2nc(-c3ccco3)cc(C(F)(F)F)n2n1	>57	i
CCOc1ccc(Cl)cc1S(=O)(=O)N1CCN(c2ccc(F)cc2)CC1	>57	i
Nc1nc2n(n1)C(c1ccccc1)CC(c1ccc(F)cc1)N2 (stereo not drawn)	/	i
CN(C)CCN1C(=O)C(=O)/C(=C(/O)c2ccc(F)cc2)C1c1ccccc1 (stereo not drawn)	>57	i

Continued.
SMILES	PK Bst	YjeE inh
CC(C)COP(=O)(c1ccc(N(C)C)cc1)C(O)c1ccccn1 (stereo not drawn)	>57	i
O=C(O)c1cc([N+](=O)[O-])ccc1NCCCc1ccccc1	/	i
CCOC(=O)c1cnc(SCC(=O)Nc2nc(C)c(C)s2)nc1N	>57	i
O=C(COc1ccccc1)Nc1ccc2c(c1)nc1n2CCOC1	/	i
O=c1c2c3nc4ccccc4nc3n(-c3ccc4c(c3)OCCO4)c2ncn1CC1CCCO1 (stereo not drawn)	>57	i
O=C(O)c1ccc(C(=O)c2ccccc2C(=O)O)cc1C(=O)O	/	i
CCC(CC)c1nc2cc(OC)c(OC)cc2c(=O)o1	>26	/
CCOC(=O)Cn1c(=O)oc2cc(S(=O)(=O)NCc3cccs3)ccc21	/	i
Cn1c(=O)c(-c2ccc(Cl)cc2)nc2cnc(Oc3cccc(Cl)c3)nc21	/	i
COCCNc1nc(C)nc2c1nc(-c1ccccc1)n2CCN1CCCC1	/	i
CCCOc1ccc(N2C(=O)CC(NCc3ccncc3)C2=O)cc1 (stereo not drawn)	>57	i
COc1ccc(NC(=O)CSc2nccn2-c2ccccc2)cc1	>57	i
CC(C)(C)c1n[nH]c(=S)n(N)c1=O	>57	i
O=C(NCc1ccccc1)c1cccc(OCC(=O)N2CCN(C(=O)c3ccco3)CC2)c1	>57	i
COc1ccc2c(CC(=O)N3CCN(S(=O)(=O)c4cccs4)CC3)coc2c1	>57	i
Cn1ncc2c(Nc3cccc(Cl)c3)nc(Nc3cccc(Cl)c3)nc21	/	i
CCCCOC(=O)NCN1C(=O)C2C3C=CC(C3)C2C1=O (stereo not drawn)	>57	i
CN=C1SC(CC(=O)Nc2cccc(Cl)c2Cl)C(=O)N1C (stereo not drawn)	>57	i
O=C(C1CC1)N(Cc1ccco1)c1nc(-c2ccccc2)cs1	>57	i
O=C(Nc1ccc(N2CCCCC2)c(Cl)c1)c1ncn[nH]1	/	i
COc1cc(OC)cc(C(=O)N2CCN(C(=O)c3cccc(F)c3)CC2)c1	>57	i
O=C(Cc1cccs1)N(c1ccccc1)C1C=CS(=O)(=O)C1 (stereo not drawn)	>57	i
CC1CN(Cc2nc3c(c(=O)n(C)c(=O)n3C)n2CCCO)CC(C)O1 (stereo not drawn)	>57	i
NS(=O)(=O)c1ccc(NC(=O)COC(=O)CCNC(=O)NC23CC4CC(CC(C4)C2)C3)cc1	>57	i
COc1cc(OC)cc(C(=O)N2CCN(C(=O)COc3ccc4ccccc4c3)CC2)c1	?	i
Cc1cccc(C)c1NC(=O)C1(NC(=O)c2cnccn2)CCCCC1	/	i
O=c1c(-c2cc(F)cc(F)c2)nc2cnc(N3CCOCC3)nc2n1C1CC1	/	i
Nc1nonc1C(=O)NCCN=Cc1cc(Cc2ccccc2)cc(Br)c1O	?	/
O=c1c2[nH]c3ccccc3c2ncn1Cc1ccncc1	>57	i
O=C(Nc1nnc(C2CCCC2)s1)C1CCC1	>57	i

Looked up by structure from above (2):
SMILES	PK Bst	YjeE inh
CC1(C)Cc2c(C#N)c(NC3CCCCC3)nc(-c3ccco3)c2CO1	/	i
Oc1c(CN2CCN(c3ccccc3)CC2)cc(Br)c2cccnc12	/	i

Going on with the list:
SMILES	PK Bst	YjeE inh
COCCNC(=O)CN(c1ccc(C)cc1)S(=O)(=O)c1ccccc1	>57	i
COC(=O)c1ccccc1NC(=O)NCc1cccnc1	>57	i
Cc1noc(C)c1-c1nccc(-n2ccnc2)n1	/	i
c1ccc(Oc2cccc(CN3CCOCC3)c2)cc1	/	i
Nc1cc(C(=O)O)[nH]c(=O)n1	/	i
Oc1ccccc1Cn1c(-c2ccccc2O)nc2ccccc21	>57	i
COc1ccc(C(=O)Nc2nc3cc(OC)c(OC)cc3c(=O)[nH]2)cc1	>57	i
CCc1c(O)nc(SCC(=O)Nc2ccc3c(c2)CCC3)[nH]c1=O	>57	i
O=C(c1cccnc1)N1CCCc2ccccc21	/	i
C/C(=C\C1CCCCC1)C(NC(=O)c1ccc(C(F)(F)F)cc1)c1ccc(-c2ccccc2)cc1 (stereo not drawn)	/	i
CCOc1ccc(N(CCC#N)S(=O)(=O)c2ccc(OC)cc2)cc1	>57	i
O=C(CN1CCN(c2ncc(C(F)(F)F)cc2Cl)CC1)NC(=O)NCc1ccccc1	>57	i
CCOC(=O)N1CCN(C(=O)CCc2ccc(S(=O)(=O)NCCc3ccccc3)cc2)CC1	>57	i
O=c1c2ccccc2[nH]c(=S)n1C1CCCCC1	>57	i
CC(=O)c1cn(CC(=O)NCC2CCCO2)c2ccccc12 (stereo not drawn)	>57	i
COc1ccc(CCNC(=O)C2(C)CCC(=O)N2CCC(C)C)cc1OC (stereo not drawn)	/	i
Cn1c(=O)c2c(nc(NCC(O)CO)n2CCc2ccccc2)n(C)c1=O (stereo not drawn)	>26	/
CC(C(=O)Nc1ccccc1-c1ccccc1)N1CCOCC1 (stereo not drawn)	>57	i
N#Cc1cccc(-n2nnnc2-c2ccc3c(c2)OCO3)c1	>57	i
CCc1ccc(CN(C)CCc2ccccn2)cc1	>57	i
Brc1ccc2[nH]ncc2c1	/	i
COc1c(Cl)cc(-c2noc(C)c2C(=O)NC(C)C)cc1Cl	/	i
CN(C)S(=O)(=O)c1ccc(NC(=O)c2cc3ccccc3o2)cc1	/	i
CCOC(=O)CC1C(=O)NCCN1C(=O)Nc1ccccc1 (stereo not drawn)	>57	i
COCCn1c(-c2ccc(OC)cc2)cnc1N	>57	i
N#Cc1c(N)nc2c(c1-c1ccncc1)CCCC2	>57	i
CCOC(=O)NC1(C(F)(F)F)C(=O)NC(C)=C1C#N (stereo not drawn)	>26	/
CCCN1CCN(C(=O)C2CCN(S(=O)(=O)c3ccc4c(c3)oc(=O)n4C)CC2)CC1	/	i
COc1cccc(NS(=O)(=O)c2c(C)cc(C)cc2C)c1	/	i
COC(=O)CSc1nnc2c3c4c(sc3nc(-n3nc(C)cc3C)n12)COC(C)(C)C4	>57	i
COc1cccc(OC)c1OCCCSc1nc(C)cc(=O)[nH]1	>57	i
CCOCCCNC(=O)C(c1ccc(Cl)cc1)N1CCN(C(=O)c2ccco2)CC1 (stereo not drawn)	>57	i
CN(C(=O)CSc1nnnn1-c1ccccc1)C1CCCCC1	>57	i
Cc1c(NC(=O)CN2CC(C)OC(C)C2)c(=O)n(-c2ccccc2)n1C (stereo not drawn)	>57	i
CCc1cc2c(=O)c(-n3cnc4ccccc43)coc2cc1O	>57	i
CCCCCCN1Cc2ccccc2C1	>57	i
CC(=O)c1c(C)[nH]c(C(=O)NCc2ccccn2)c1C	>57	i
CCN(CC)C(=O)C1CCN(S(=O)(=O)c2ccc(C3CNC(=O)C3)cc2)CC1 (stereo not drawn)	/	i
COc1ccc2cc(CN(CCCN3CCOCC3)Cc3nnnn3C3CCCC3)c(=O)[nH]c2c1	>57	i
Cc1ccc(CNC(=O)c2coc(=O)c3ccccc23)o1	/	i
CCOC(=O)CNC(=O)CSc1nc2nc(C)c(Br)cc2[nH]1	>57	i

Sorted by molar mass (largest number first): part of the list above
SMILES	PK Bst	YjeE inh
CCOCCCNC(=O)C(c1ccc(Cl)cc1)N1CCN(C(=O)c2ccco2)CC1 (stereo not drawn)	>57	i
Cc1c(NC(=O)CN2CC(C)OC(C)C2)c(=O)n(-c2ccccc2)n1C (stereo not drawn)	>57	i
CN(C(=O)CSc1nnnn1-c1ccccc1)C1CCCCC1	>57	i

An excerpt; count on the stated rates, not on these rows.
